nsP2pro primary = CHIKV nsP2 protease inhibition, primary qHTS; Q8JUX6; FRET peptide cleavage, nsP2pro, fluorescence 1 h; Potency, µM (highest dose often 24.9 µM), for the others: top-dose activity change, negative = inhibition, hits mostly inhibitors; actives 1.1% (n = 31,000); AID 1964107; active means well fitted inhibition curve with a large enough effect; inconclusive means small, poorly fitted or top-dose-only effect; inactive means no such curve, though single readings can be large or run the other way; note: nearly all actives have a fitted effect of over 60% in size; a reference inhibitor and vehicle were the controls
* marks the source's active call; other numbers are inactive results; i = inactive; ? = inconclusive; & = joins results of further samples; [ ] = dose if it differs, or a comment. % is set by controls: 0 for no effect and ±100 for the full control effect; potency is the fitted concentration of half-maximal effect. An excerpt; count on the stated rates, not on these rows.

SMILES	nsP2pro primary
COC1CCC12CCNCC2 (stereo unspecified)	-2%
O=C(O)c1ccc2c(c1)C(=O)N([C@]1(C(=O)O)C[C@H]1c1ccccc1)C2=O	0%
Cc1ccc(-c2ccnn(CC(=O)N(C)C(C)c3ccco3)c2=O)cc1 (stereo unspecified)	?
[2H]C([2H])(Nc1nc(-c2ccccc2C([2H])(C([2H])([2H])[2H])C([2H])([2H])[2H])ncc1C)c1ccc(-n2ccnn2)cc1	2%
O=C1NCCCCCN(C(=O)C2CCC2)[C@H]2CCCC[C@@H]12	i
C#CCNC(=O)C[C@@H]1c2nc(NC(=O)OCC=C)sc2C[C@@H]2[C@](C)(CO)[C@H](O)CC[C@]21C	-18%
COCCN1C(=O)Cc2ccccc2C1C(=O)N(C)Cc1ccco1 (stereo unspecified)	?
CCCCc1nc2cc(/C=C/C(=O)NO)ccc2n1CCN(CC)CC	43%&31%[activator]
Nc1nc2c(c(=O)[nH]1)C[C@@H](CCc1ccc(C(=O)N[C@@H](CCC(=O)O)C(=O)O)cc1)CN2	61%[activator]
COc1cccc(CNc2ccc(S(=O)(=O)Nc3cc(C)on3)cc2)c1O	i
Cc1ccc(-c2csc3ncnc(Sc4nnnn4C)c23)cc1	i
COc1ccc(OC)c(Nc2nn3c(=O)c4ccccc4nc3s2)c1	i

Rewritten with bars between the fields: 5 of the compounds above
Structure | nsP2pro primary
COc1cccc(CNc2ccc(S(=O)(=O)Nc3cc(C)on3)cc2)c1O | i
COC1CCC12CCNCC2 (stereo unspecified) | -2%
COc1ccc(OC)c(Nc2nn3c(=O)c4ccccc4nc3s2)c1 | i
Nc1nc2c(c(=O)[nH]1)C[C@@H](CCc1ccc(C(=O)N[C@@H](CCC(=O)O)C(=O)O)cc1)CN2 | 61%[activator]
Cc1ccc(-c2csc3ncnc(Sc4nnnn4C)c23)cc1 | i

New compounds follow
SMILES	nsP2pro primary
COc1ccc(C(=O)N[C@H]2COC[C@H]2Cc2cc(C)no2)c(OC)n1	3%
CCOC(=O)c1c(C)c(-c2ccccc2)n(CC(=O)NC2CCCCC2)c1C	-23%
COc1ccc(-c2nc(CNC(=O)NC3CCCCC3)c(C)o2)c(OC)c1	-16%
CC(C)c1cc(-c2nc(-c3ccc(Br)cc3)no2)n[nH]1	-15%
CC(NC(=O)C1CCN(S(=O)(=O)c2ccc3nc4c(c(C(=O)O)c3c2)CCCC4)CC1)c1ccccc1 (stereo unspecified)	-18%
CNCCN1CCC(OCc2ccccc2)CC1	1%
N[C@@H](CC(=O)N1CCc2c(nc(C(F)(F)F)nc2C(F)(F)F)C1)CN1CC(F)(F)CCC1=O	-12%
O=C(NC1CCCC1)C1c2ccccc2C(=O)N(C2CCCC2)C12CCCCC2 (stereo unspecified)	0%
Cc1cc(C)c2nonc2c1S(=O)(=O)N1C[C@@H](N(C)C)[C@H](C(C)C)C1	1%
COc1ccc(C(=O)N2CCC(C3CCN(S(C)(=O)=O)CC3)C2)cn1 (stereo unspecified)	1%
Cc1ccc2oc(C(=O)Nc3ccc(S(=O)(=O)Nc4nccc(C)n4)cc3)cc(=O)c2c1	-21%
CN(Cc1ccc2nonc2c1)Cc1cn(-c2ccccc2)nn1	-4%
C=C1CC[C@@]2(OC1)O[C@H]1CC3C4CC=C5C[C@@H](O[C@@H]6O[C@@H](C)[C@H](O)[C@@H](O)[C@H]6O)C[C@@H](O[C@@H]6O[C@H](C)[C@H](O)[C@H](O)[C@H]6O[C@@H]6O[C@@H](C)[C@H](O)[C@@H](O)[C@H]6O)[C@]5(C)C4CC[C@]3(C)[C@H]1[C@@H]2C (stereo partly specified)	0%[5.1 µM]
Cc1nc(CCNC(=O)c2cnc(-c3cccnc3)nc2)cc(=O)[nH]1	2%
CCn1ccc(C(=O)N2CC3CC(C2)[C@H]2CCCC(=O)N2C3)n1 (stereo partly specified)	4%
O[C@@H]1[C@@H](O)[C@@H](O)OC[C@@H]1O	-11%[78.4 µM]
CNC(=O)c1cc(-c2cnc(OC)nc2)cc2c1OCCN2Cc1cccnc1	i
COc1cccc(-c2nc(Cn3c(=O)cc(C)c4c(C)nn(-c5ccccc5)c43)c(C)o2)c1OC	-15%
Cc1cc(C)nc(NC(=S)N2CCN(c3ccc(F)c(Cl)c3)CC2)c1	-14%
Cn1cc(CN2CCN(c3ccc(C#N)cn3)CC2)c(-c2ccccc2)n1	2%
C=C[C@@H]1C[C@]1(NC(=O)[C@@H]1C[C@@H]2CN1C(=O)[C@H](C(C)(C)C)NC(=O)O[C@@H]1C[C@H]1CCCCCc1nc3ccc(OC)cc3nc1O2)C(=O)NS(=O)(=O)C1CC1	-14%&-9%
Cc1ccc([S+](=O)([O-])n2cc(Cc3ccc(-c4ccccc4)cc3)c3ccccc32)cc1	1%
O=C(c1ccco1)N(Cc1cccnc1)c1nc2c(F)cccc2s1	-19%
COCC1(CNC(=O)c2cnccn2)C[C@@H](O)[C@@H](O)C1 (stereo partly specified)	i
CCOC(=O)Cc1cc(C(=O)Nc2ccc(Br)cc2)sc1-c1ccc(C)cc1	-18%
CC(C)[S+](=O)([O-])N1CCC2(CC1)CC(c1cccc(C(F)(F)F)c1)=NO2	i
CCCNC(C)C(=O)Nc1ccccc1C (stereo unspecified)	8%
CCC1(N2CCN(S(=O)(=O)c3cc(F)ccc3C)CC2)CCN(C(=O)NC)C1 (stereo unspecified)	1%
CCc1nc(CN2CCC(N3CCCC(C(=O)NCc4ccccn4)C3)CC2)no1 (stereo unspecified)	i
O=C(CCc1nnn2c1CN(C(=O)COc1ccc(F)cc1)CC2)NCc1ccccc1	i
CCOc1ccc(-c2ccc(NS(=O)(=O)c3cc(C)c(C)cc3C)cc2)nn1	-19%
CCC(C)n1c(=O)c2sccc2n2c(CCCC(=O)N3CCN(c4ccccc4)CC3)nnc12 (stereo unspecified)	-13%
COc1ncccc1-c1nc(-c2c(C)noc2C)cc2c1cc(C)n2CCN(C)C	-19%[39.2 µM]
c1csc(CNc2ncnc3ccc(-c4ccc5c(c4)OCO5)cc23)c1	22%
O=C(c1cccs1)c1cn(CCOc2ccc(F)cc2)c2ccccc12	-5%
C[C@@H](c1ccccc1)N(C)C(=O)c1cc(COc2cccc(F)c2)[nH]n1	i
C/C(=C\c1cc2ccccc2o1)C1Nc2cccc3cccc(c23)N1	i
Cn1c(=O)c2c(ncn2CC(=O)N2CCC(Cc3nc(C4CCOCC4)no3)CC2)n(C)c1=O	2%
C[S+](=O)([O-])N1CCn2ncc(C(=O)NCc3ccc(Cl)nc3)c2C1	-3%
O=C(CCCn1c2ccccc2c(=O)c2ccccc21)Nc1ccc(F)cc1Cl	-12%
OC1(c2csc(CN3CCOCC3)n2)CCN(C2CCCC2)CC1	5%[39.2 µM]
CN1CCN(c2ccc(CNc3nn4c(=O)c5ccccc5nc4s3)cc2)CC1	5%
CC(=O)Nc1ccc(NC(=O)C2CCN(S(=O)(=O)c3ccc4c(c3)CCCC(=O)N4)CC2)cc1	-7%
CCN1CCN(c2ccc(NS(=O)(=O)c3c(C)nc4sccn4c3=O)cc2Cl)CC1	-4%
CCC1Oc2ccc(NC(=O)c3ccccc3OC(C)=O)cc2CN(Cc2ccccc2F)C1=O (stereo unspecified)	2%
CCOc1ccc2nc(N3CCCC(C(=O)NCc4ccc(C)cc4)C3)sc2c1 (stereo unspecified)	-24%
C=C1C2(CCC(=O)OC2(C)C)CC(OC(=O)/C(C)=C/C)C2(C)C13OC14C(=O)OC(C)(C(=O)C12C(=O)OC4C)C3OC(C)=O (stereo unspecified)	-5%[10 µM]
N#Cc1nc(NCCCCO)nc(Nc2ccccc2)n1	i
Cc1noc(C)c1CC(=O)N1CC[C@@H](NC(=O)c2cnccn2)[C@H](O)C1	3%
CCOC(=O)c1cccc(NC(=O)N2CC[C@@H](CC(=O)NCc3ccccc3OC)[C@@H](CC)C2)c1	-24%
O=C(NCCCc1ccccc1)C1CN(C2CCCC2)C(=O)N1 (stereo unspecified)	i
CC(=O)c1ccc(N2CCN(C(=O)Nc3cccc(F)c3)CC2)cc1	-15%
CC(C)CC(=O)OC[C@@]1(O)C[C@@]23CC[C@H]4[C@@](C)(CCC[C@@]4(C)C(=O)O)[C@@H]2CC[C@@H]1C3	-10%[10 µM]
CCOc1cccc(CN(C)C(=O)CN2CC3(CCN(C)CC3)CC2=O)c1	i
CCS(=O)(=O)Nc1ccc(C)n(CC(=O)NC2CCCCC2)c1=O	-11%
COc1cccc(NC(=O)C(=O)NCC(c2ccc3c(c2)OCO3)N2CCN(C)CC2)c1 (stereo unspecified)	3%
CCCS(=O)(=O)N1C[C@@H]2C(=O)N(CCC3CCN(C(C)C)CC3)C(=O)[C@@H]2C1	1%
CC(/C=C/C=C(\C)C(=O)O[C@@H]1O[C@H](CO[C@@H]2O[C@H](CO)[C@@H](O)[C@H](O)[C@H]2O)[C@@H](O)[C@H](O)[C@H]1O)=C\C=C\C=C(C)\C=C\C=C(/C)C(=O)O[C@@H]1C[C@](O)(C(=O)O)C[C@@H](O)[C@H]1OC(=O)/C=C/c1ccc(O)c(O)c1	198%[activator][5.1 µM]
Cc1ccc(-c2cc(C(=O)O)c3cccc(C)c3n2)cc1C	1%
O=C(NCc1ccc(F)cc1)C1CCN(C(=O)c2cnn(-c3ccccc3)c2-n2cccc2)CC1	-3%

Entries shown so far containing a thiophene ring, fused or not (5):
SMILES	nsP2pro primary
Cc1ccc(-c2csc3ncnc(Sc4nnnn4C)c23)cc1	i
CCOC(=O)Cc1cc(C(=O)Nc2ccc(Br)cc2)sc1-c1ccc(C)cc1	-18%
CCC(C)n1c(=O)c2sccc2n2c(CCCC(=O)N3CCN(c4ccccc4)CC3)nnc12 (stereo unspecified)	-13%
c1csc(CNc2ncnc3ccc(-c4ccc5c(c4)OCO5)cc23)c1	22%
O=C(c1cccs1)c1cn(CCOc2ccc(F)cc2)c2ccccc12	-5%

Next part
SMILES	nsP2pro primary
Cc1onc(-c2ccccc2Cl)c1C(=O)N(C)c1ccc(Cl)cc1	-7%
COCCn1c(C)cc(O)c(C(c2ccccc2)N2CCN(C)CC2)c1=O (stereo unspecified)	?
C=C(C)[C@H]1Cc2c(ccc3c2O[C@@H]2COc4cc(OC)c(OC)cc4[C@@H]2C3=O)O1	-17%
COc1ccc(OC)c(C2=Nn3c(nnc3-c3cccc(OC)c3OC)SC2)c1	i
COc1ccc(NC(=O)c2cnn3c(C)cc(C)nc23)cc1F	3%
CC/C=C\CCO[C@@H]1O[C@H](CO[C@@H]2OC[C@H](O)[C@H](O)[C@H]2O)[C@@H](O)[C@H](O)[C@H]1O	?
COC(=O)[C@H]1CN(C(=O)NC(C)C)CCN1C(=O)C1CCCCC1	i
Cc1nn(-c2ccccn2)c(C)c1[C@@H]1C=C[C@@H](NC(=O)NC(C)C)C1	10µM*
Cn1ccc2cc(-c3ccc4ncnc(NCc5cccnc5)c4c3)ccc21	i
CC(CCc1ccc(O)cc1)NCC(O)c1ccc(O)cc1 (stereo unspecified)	1%
COc1ccc(CNC(=O)c2sc3nc(C)cc(C)c3c2N)cc1	-10%
CC(C)CCNC(=O)[C@H](CC(C)C)NC(=O)[C@H]1O[C@@H]1C(=O)O	-10%&-3%
COc1cc(OC)cc(C(=O)NCC2CCCN(Cc3cc4ccccc4o3)C2)c1 (stereo unspecified)	2%
CCC(C)C(=O)O[C@H]1CCC=C2C=C[C@H](C)[C@H](CC[C@@H](O)C[C@@H](O)CC(=O)O)[C@H]21 (stereo partly specified)	?
C[C@H](C/C=C/C(C)(C)O)[C@H]1CC[C@@]2(C)[C@@H]3[C@@H](O[C@@H]4O[C@H](CO)[C@@H](O)[C@H](O)[C@H]4O)C=C4C(CC[C@H](O)C4(C)C)[C@]3(C=O)CC[C@]12C (stereo partly specified)	-12%[10 µM]
N[C@@H](Cc1ccc(N(CCCl)CCCl)cc1)C(=O)O	-14%
CCCCc1nn2c(C)c(-c3ccc(OCC)cc3)nc2s1	-27%
Cc1cnc(CCNC(=O)Nc2ccc3c(c2)OCCO3)n1C1CCC1	i
Cc1ccc(-n2cc(CN3CCN4CCCC4C3)c(-c3cccc(C)c3)n2)cc1 (stereo unspecified)	i
COc1cccc(C2C(C#N)=C(NC(=O)CCc3ccccc3)Oc3ccc4ccccc4c32)c1 (stereo unspecified)	i
CN1CCC(NC(=O)CC2(Cc3ccccc3)C(=O)N(C)c3ccccc32)CC1 (stereo unspecified)	-2%
CC(C)[C@@H](C)/C=C/[C@@H](C)[C@H]1CC[C@H]2C3=CC=C4C[C@@H](O)CC[C@]4(C)C3=CC[C@]12C	-14%
c1cnc2c(c1)ccc1cccnc12	83%[activator]
CC1(CO)CC2C(O)C3=C(CC(C)(O)C2C1)C(=O)OC3 (stereo unspecified)	17%
O=C(Cn1cc(C(=O)c2ccccc2)c(=O)c2cc3c(cc21)OCCO3)Nc1ccc(F)c(F)c1	-14%
C[C@@H]1C[C@@H](O)[C@]2(O)O[C@@H]3C[C@@]4(C=O)C(CC[C@@H]5C4CC[C@]4(C)[C@@H](C6=CC(=O)OC6)CC[C@]54O)C[C@H]3O[C@@H]2O1 (stereo partly specified)	4%[10 µM]
COc1ccc(N2C(=O)c3ccccc3C2=O)cc1	4%
C[C@H](CN(C)C)Oc1nc(Nc2cc3cccc(Cl)c3cn2)cnc1C#N	27%
CCOC(=O)c1c(C)oc2nc(C)nc(N(CC(C)C)CC(C)C)c12	-26%
COc1ccc(Nc2ncnc3onc(C)c23)cc1Cl	-21%

Bioassay records deposited in PubChem by National Center for Advancing Translational Sciences (NCATS).
